Source: PubChem (National Center for Advancing Translational Sciences (NCATS))
GLA inh pH 4.5: alpha-galactosidase A (human) inhibition, pH 4.5; activity change, negative = inhibition, % at 105 µM; purified enzyme, 4-MU-alpha-Gal fluorescence, pH 4.5; 230,000 tested, under 10 active; P06280; inconclusive = small, poorly fitted or top-dose-only inhibition, or a rising curve; inactive = flat fitted curve, though single readings scatter; no compound was filed as active;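 further: 0% = full activity with enzyme and -100% = basal without enzyme; dose as in the result columns while the protocol names 77 µM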
Target sequence (P06280 whole entry, looked up): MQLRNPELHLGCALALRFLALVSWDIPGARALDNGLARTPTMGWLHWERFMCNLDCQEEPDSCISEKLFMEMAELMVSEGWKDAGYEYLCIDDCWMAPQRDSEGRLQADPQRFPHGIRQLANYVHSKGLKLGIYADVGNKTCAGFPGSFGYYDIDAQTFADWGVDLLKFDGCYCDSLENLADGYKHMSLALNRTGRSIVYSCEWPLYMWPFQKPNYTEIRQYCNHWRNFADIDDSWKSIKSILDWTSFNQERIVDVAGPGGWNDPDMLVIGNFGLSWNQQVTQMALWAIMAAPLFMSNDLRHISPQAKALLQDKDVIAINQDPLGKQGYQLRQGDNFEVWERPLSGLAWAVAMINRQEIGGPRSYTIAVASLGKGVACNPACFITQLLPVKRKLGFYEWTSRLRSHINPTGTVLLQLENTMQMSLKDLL
Rango-impB inh: inhibitors of Rango-importin beta complex formation; Q14974; Rango CFP/YFP FRET sensor + importin beta, 45 min; Potency, µM (series often up to 92.2 µM), inactives show top-dose inhibition of complex formation; 0.031% of 340,000 active; AID 540263; active = rising FRET ratio curve, often small or poorly fitted; inconclusive = mostly compound fluorescence or quenching in the first reads; inactive = flat curves in all reads;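 further: potency means the concentration at half of the fitted maximal effect; 0% = DMSO wells and 100% = buffer wells lacking importin beta; nearly all actives have a fitted effect of over 15% in size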
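FRET biosensor (snurportin 1 IBB flanked by EYFP and cerulean), 50 nM, with compound 5 min, then 0.125 microM importin beta in PBS, 1 mM DTT, 0.02% Tween-20, 0.1% BSA. CFP/YFP ratio read after 45 min at room temperature; pre-read flags interference.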
miR-21 FLuc: raises the signal of a miR-21 reporter. 340,000 tested, under 10 active. Potency, µM (top dose mostly 38.3 µM), for inactives: at the top dose reporter change, positive = more light. HeLa miR-21 FLuc reporter, luciferase, 48 h; active = well fitted rising curve with a large enough effect; inconclusive = small, poorly fitted or top-dose-only effect; inactive = no such curve, though single readings can be large or run the other way;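 further: % of control where 0% means no effect; miR-21 action dims this reporter so a rising signal means less miR-21 action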
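Compounds were titrated across several concentrations (up to approximately 40 uM) and incubated 48 hours with HeLa miR-21-FLuc reporter cells (miR-21 target sequence downstream of FLuc, endogenous miR-21). Readout was firefly luciferase luminescence after lytic detection reagent.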
Rango dissoc inh: inhibition of RanGTP-driven Rango-importin beta dissociation. 0.071% of 340,000 active. Biochemical FRET Rango-importin beta, RanGTP-induced dissociation. Potency, µM (doses to about 46.1 µM), without a hit: at the top dose activity change, negative = inhibition. O95149+P62826; active means falling FRET ratio curve, often poorly fitted, with flat reads before Ran was added; inconclusive means other falling curves, or compound fluorescence or quenching; inactive means flat or rising ratio curve;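 further: potency means the concentration at half of the fitted maximal effect; % of control where 0% means no effect; nearly all actives have a fitted effect of over 45% in size; -100% = wells without RanGTP and RCC1; the record marks most hits as doubtful in a second field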
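Compounds sat 5 min at room temperature with 0.1 uM Rango biosensor plus 0.25 uM importin beta, then FRET pre-read. RanGTP-RCC1 (0.6 uM Ran, 2mM GTP, 0.2 uM RCC1) added for 45 min, and the CFP/YFP post-read measured blocked complex dissociation.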
* hit, by the source's call; ? = inconclusive; . = not tested or not shown; & = joins results of further samples. The list is partial (hit frequency here may not be typical).

SMILES	GLA inh pH 4.5	Rango-impB inh	miR-21 FLuc	Rango dissoc inh
O=[n+]1cc(-c2ccccc2)n([O-])c2c1CCC2	-3	0.7%	1%	?
Cc1ccnc(NC(=O)c2ccc(S(=O)(=O)N3CCCCCC3)cc2)c1	.	-2.3%	.	1%
CC1CC(C)CN(C(=O)/C=C/c2ccc(S(=O)(=O)N3CCOCC3)cc2)C1 (centres undefined)	.	-0.9%	.	17%
COc1ccccc1C(CNC(=O)C1COc2ccccc2O1)N1CCCC1 (centres undefined)	.	-3.6%	.	-1%
COc1cc(-c2nc3ccccn3c2/N=C/c2cccc(OC)c2O)ccc1O	-9	?	2%	?
CCCCC[C@H](O)/C=C/[C@@H]1[C@@H](CCCCCCC(=O)O)[C@@H](O)C[C@H]1O	-6	-1.6%	-18%	-8%
CCCCN(C(=O)Cn1nnc2ccccc21)C(C(=O)NCCOC)c1ccc(OC)cc1OC (centres undefined)	-1	2.0%	-3%	12%
CCCOc1cccc(NC(=O)OC2CCN(C)CC2)c1	3	-2.4%	-6%	2%
COc1ccc(S(=O)(=O)N(c2onc(C)c2Cl)S(=O)(=O)c2ccc(OC)cc2)cc1	-4	5.6%	-2%	?
Cc1cc(Cl)ccc1NC(=O)C1COc2ccccc2O1 (centres undefined)	.	-1.3%	-33%	18%
O=C(CSCc1nc2c(nnn2Cc2ccc(F)cc2)c(=O)[nH]1)Nc1cccc(C(F)(F)F)c1	3	-0.6%	-5%	-8%
CC(=O)Nc1ccc(SCC(=O)OCC(=O)NC(=O)NCc2ccco2)cc1	5	4.9%	-1%	-2%
CC1(C)Oc2ccc3ccc(=O)oc3c2C[C@H]1O	2	-4.1%	-3%	1%
CC(=O)c1cc(-c2ccc(F)cc2)n(CC(=O)NCc2cccs2)c1C	-2	-2.0%	0%	-2%
CC(=O)Nc1ccc(S(=O)(=O)Nc2nc3ccccc3s2)cc1	-18	1.5%	-2%	1%
Cc1cccc(CN2CCN(C(=O)CN(C)C(C)C(=O)Nc3ccc(C(N)=O)cc3)CC2)c1 (centres undefined)	.	1.6%	.	-9%
NC(=O)Cc1ccc(C(=O)c2ccccc2)s1	4	0.6%	-9%	13%
O=C(CCc1nc(-c2ccc(Cl)cc2)no1)NCc1ccccc1CN1CCOCC1	.	-0.2%	.	-24%
O=P(NCc1ccccc1)(OCc1ccccc1)OCc1ccccc1	.	1.2%	.	-3%
COc1cccc(-c2nc(N3CC(C)CC(C)C3)c3ccccc3n2)c1O (centres undefined)	-2	-1.9%	-1%	14%
C=CCN1C(=O)C(CC(=O)Nc2ccccc2)N(Cc2ccccn2)C1=S (centres undefined)	0	-4.2%	11%	5%
COc1ccccc1OCC(=O)Nc1ccc(N2CCOCC2)cc1N1CCOCC1	.	1.2%	.	-5%
CC(C)N1CCN(Cc2ccc(OCc3ccccc3)cc2)CC1CCO (centres undefined)	-28	1.2%	-10%	16%
COC(=O)c1cc(NC(=O)Cc2ccccc2[N+](=O)[O-])cc(C(=O)OC)c1	5	2.6%	2%	-9%
CCOC(=O)CC1(NC(=O)C2CCC(=O)N(CCc3ccccc3)C2)CCCCC1 (centres undefined)	.	-1.0%	-11%	3%
C=CCNC(=O)/C(=C/c1cccc([N+](=O)[O-])c1)NC(=O)c1ccco1	6	-1.1%	2%	-8%
Cc1ccc(C(=O)CSc2ncnc3sc4c(c23)CCCC4)cc1	14	2.2%	-1%	2%
O=C(c1ccc(COc2ccccc2Cl)o1)N1CCOCC1	.	-1.1%	-18%	-9%
CCCCC[C@@H]1C=C(C(=O)O)[C@H](c2ccc(OC)c(OC)c2)N1S(=O)(=O)c1ccc(C)cc1	.	0.0%	.	-9%
Cc1cs/c(=N\N=C\c2ccc(O)cc2)n1Cc1ccco1	-15	-0.8%	-71%	3%
O=C(c1cnc2ccc(Cl)cc2c1Cl)N1CCOCC1	-1	-0.9%	1%	14%
O=C(Nc1ncc(Cc2cc(Cl)ccc2Cl)s1)c1ccc([N+](=O)[O-])cc1	3	-0.4%	-4%	7%
O=C(CC(CC(=O)c1ccccc1)C(=O)O)c1ccccc1	0	0.3%	-6%	15%
CCN(c1ccccc1)S(=O)(=O)c1cccc(C(=O)NCC2(N(C)C)CCCCC2)c1	.	-0.4%	.	-9%
COc1ccc(S(=O)(=O)N2CCN(Cc3c[nH]c4ccccc34)CC2)cc1	-1	-5.2%	0%	12%
CC(NCc1ccc(OCc2ccc(Cl)cc2)cc1)C(O)c1ccccc1 (centres undefined)	-10	-0.1%	?	16%
Cc1cc(C)c(S(=O)(=O)N2CCC(C(=O)OCc3c(C)noc3C)CC2)c(C)c1	.	-1.9%	.	-19%
Nc1c2c(nc3ccn(-c4ccccc4)c(=O)c13)CCCCC2	5	0.5%	-24%	-2%
Cc1ccc(N2CCCn3c2cc(C)c(C#N)c3=O)cc1C	-10	1.1%	-4%	-7%
COc1ccc(NC(=O)CN(C)C(=O)C(NC(=O)c2ccco2)C(C)C)cc1 (centres undefined)	.	0.0%	.	12%
Cc1cccc(NC(=O)CCS(=O)(=O)c2ccc3c(c2)oc(=O)n3C)c1	.	2.0%	0%	-1%
COc1ccc(CCN2C(=O)c3[nH]nc(-c4ccccc4O)c3C2c2ccc(C)cc2)cc1OC (centres undefined)	-9	-0.2%	22%	4%
O=C(NNC(=S)NC1CCCCC1)c1ccccc1Cl	6	-1.8%	-27%	0%
Cc1ccc(OCCn2cccn2)c(C)c1	-4	-0.6%	-3%	23%
CCc1c(C(=O)N/N=C/c2cccs2)nnn1-c1nonc1N	.	0.4%	-19%	-7%
Cn1c(=O)oc2cc(S(=O)(=O)NCCN3CCN(c4ccccc4)CC3)ccc21	-8	-0.6%	-3%	5%
OC[C@H]1O[C@H](OCc2ccccc2)[C@H](O[C@@H]2OC[C@@H](O)[C@H](O)[C@H]2O)[C@@H](O)[C@@H]1O	.	-0.2%	.	-9%
CCn1c(SCC(=O)Nc2ccc(OC)c(OC)c2)nnc1-c1cccs1	2	4.4%	2%	-3%
Cn1c(=O)[nH]c(=O)c2c1nc(N1CCCC1)n2CCCSc1nc2ccccc2o1	6	-0.2%	4%	8%
CCSc1nc(CC)c2c(c1C#N)CCCC2	4	-0.3%	-14%	-12%
COc1ccccc1-c1c(C)nn2c(C)cc(C)nc12	-14	-0.4%	-5%	8%
COc1cc(C(=O)NC(=S)Nc2ccc([N+](=O)[O-])cc2C)cc(OC)c1OC	-12	0.1%	-3%	10%
COc1ccc(/C(C)=N/OC/C(O)=C(\C#N)c2nc3ccccc3[nH]2)c(OC)c1	6	-4.2%	-6%	-6%
N#C/C(=C(/O)c1ccc([N+](=O)[O-])cc1)c1nnc2n1CCCCC2	-8	-1.0%	0%	2%
O=C(N[C@@H](Cc1ccccc1)C(=O)O)c1cccs1	.	-0.1%	10%	11%
COc1ccccc1N1C(=O)C2ON(c3ccccc3)C(c3ccc(N(C)C)cc3)C2C1=O (centres undefined)	6	.	-10%	.
CC(C)OCCCNC(=O)Cn1ccc2cc(S(=O)(=O)N3CCCCCC3)ccc21	.	-0.7%	-1%&0%	-19%
Cc1nc(/N=C(\N)Nc2ccccc2)nc2ccccc12	-3	.	-22%	.
COc1ccc(-n2c(C)cc(C(=O)CN3CCC(C)CC3)c2C)cc1	-3	2.5%	-29%	2%
Cc1ccc(N2C(=O)C(O)(C(F)(F)F)C3=C2CC(C)(C)CC3=O)cc1C (centres undefined)	-16	?	-4%	11%

Six entries out of the list, ordered by SMILES length, highest first.
SMILES	GLA inh pH 4.5	Rango-impB inh	miR-21 FLuc	Rango dissoc inh
COc1cc(C(=O)NC(=S)Nc2ccc([N+](=O)[O-])cc2C)cc(OC)c1OC	-12	0.1%	-3%	10%
Cc1ccc(N2C(=O)C(O)(C(F)(F)F)C3=C2CC(C)(C)CC3=O)cc1C (centres undefined)	-16	?	-4%	11%
N#C/C(=C(/O)c1ccc([N+](=O)[O-])cc1)c1nnc2n1CCCCC2	-8	-1.0%	0%	2%
Cc1nc(/N=C(\N)Nc2ccccc2)nc2ccccc12	-3	.	-22%	.
COc1ccccc1-c1c(C)nn2c(C)cc(C)nc12	-14	-0.4%	-5%	8%
CCSc1nc(CC)c2c(c1C#N)CCCC2	4	-0.3%	-14%	-12%

Next section.
SMILES	GLA inh pH 4.5	Rango-impB inh	miR-21 FLuc	Rango dissoc inh
Cc1cc(C)nc(Sc2c(C)n[nH]c2C)n1	-9	-3.1%	0%	17%
Cc1ccc(N2C(=O)CC(N3CCN(C4CCc5ccccc5C4)CC3)C2=O)cc1 (centres undefined)	-8	-1.2%	0%	4%
Cc1nn(-c2ccccc2)c(N2CCCC2)c1/C=N/NC(=O)c1cc(-c2ccccc2)nc2ccccc12	6	0.3%	11%	4%
Cc1cnc(C(=O)N2CCCC(C(=O)c3ccc(Cl)cc3C)C2)cn1 (centres undefined)	7	2.6%	-4%	0%
CCCC(C(=O)NC(C)(C)CC)N(Cc1ccco1)C(=O)CNS(=O)(=O)c1ccccc1 (centres undefined)	.	4.7%	0%	0%
CS(=O)(=O)c1ccc(Cl)c(C(=O)NCC2CCCCC2)c1	.	5.6%	-8%	10%
Cn1c(=O)n(C)c2cc(C(=O)c3ccccc3)ccc21	-12	-1.2%	-12%	-4%
O=C(CCCn1nnnc1CN1CCOCC1)N1CCC(c2ccccc2F)C1 (centres undefined)	.	-2.1%	2%	-10%
Cc1[nH]c(C)c(S(=O)(=O)N(Cc2ccccc2)C(C)C)c1C(=O)N1CCCC1	.	3.3%	2%	10%
O=C(Cc1cnc2ncnn2c1)N1CCc2c([nH]c3ccccc23)C1c1ccccn1 (centres undefined)	-3	0.8%	-6%	-10%
CCOC(=O)c1c(-c2ccc(C)cc2)csc1NC(=O)c1ccc(N2C(=O)CCC2=O)cc1	-1	0.3%	-5%	4%
N#C/C(=C\c1ccc2c(c1)OCCO2)C(=O)Nc1ccc(C(=O)O)cc1	.	-0.4%	-42%	17%
COc1ccccc1-c1n[nH]c(=S)n1-c1ccccc1	3	-2.4%	-17%	-13%
CCn1c(/C=C/c2c(C)n(CC)c3ccccc23)nc2ccccc2c1=O	8	?	-4%	?
Cc1cc(NC(=O)COc2ccc3ccccc3c2Br)no1	.	-1.5%	.	3%
O=c1c2cc3c(nc2[nH]c(=S)n1-c1ccccc1)CCCC3	1	-0.3%	1%	0%
Cc1ccc(C(=O)NC(=S)NCc2cccnc2)cc1	4	3.0%	-12%	3%
Cc1ccc(S(=O)(=O)N2CCN(C(=O)Cn3c(=O)oc4ccccc43)CC2)c(C)c1	.	1.1%	.	0%
CCOc1ccc(Nc2ccc([N+](=O)[O-])c3nonc23)cc1	.	?	-16%	-2%
CCC(C)(C)n1nnnc1C(c1cc2cc(C)cc(C)c2[nH]c1=O)N1CCN(C(=O)c2ccco2)CC1 (centres undefined)	1	-0.7%	1%	17%
CN1C(C(=O)Nc2ccc(OC(F)(F)F)cc2)=CC(c2ccc3c(c2)OCO3)=NS1(=O)=O	.	?	0%&-32%	?
CC(C)(C)n1nnnc1C(c1cccnc1)N(Cc1ccccc1)Cc1cccs1 (centres undefined)	-4	-1.9%	21%	-9%
CCOC(=O)c1cc(OC(=O)c2cccnc2)n(-c2ccccc2)n1	-4	.	0%	.
Cc1c(N)cc2c(c1N)C(C)(C)CC2(C)C	.	2.3%	.	-6%
CCC(Sc1nc(-c2ccccc2)c(-c2ccccc2)[nH]1)C(=O)O (centres undefined)	.	5.1%	0%	-8%
CC(=O)Nc1ccc(NC(=O)C(C)n2nc([N+](=O)[O-])c(Br)c2C)cc1 (centres undefined)	3	2.6%	-12%	2%
Cc1csc(=O)n1CCC(=O)N(C)Cc1c(F)cccc1Cl	.	1.5%	.	49%
COc1ccc(CCC(=O)NCC2CCCCC2)cc1OC	.	-0.9%	-22%	-2%
COc1cc(S(=O)(=O)N(Cc2cccs2)CC2CCCO2)ccc1-n1cnnn1 (centres undefined)	8	4.7%	-7%	-3%
Cc1cc(NC(=O)c2cccs2)ncc1NC(=O)C(C)C	.	-0.9%	-27%	3%
